Screening data (PubChem)
VDR inhibitor = vitamin D3 receptor (human) inhibition; Potency, µM, for the others: max response, negative = inhibition, hits mostly inhibitors; VDR-SRC2-3 peptide fluorescence polarization, 2 h; hit rate 0.93% among 400,000; active means well fitted inhibition curve with a large enough effect; inconclusive means small, poorly fitted or top-dose-only effect, or another doubt; inactive means no such curve, though single readings can be large or run the other way; further: series mostly up to about 120 µM
Target sequence (P11473 whole entry, looked up): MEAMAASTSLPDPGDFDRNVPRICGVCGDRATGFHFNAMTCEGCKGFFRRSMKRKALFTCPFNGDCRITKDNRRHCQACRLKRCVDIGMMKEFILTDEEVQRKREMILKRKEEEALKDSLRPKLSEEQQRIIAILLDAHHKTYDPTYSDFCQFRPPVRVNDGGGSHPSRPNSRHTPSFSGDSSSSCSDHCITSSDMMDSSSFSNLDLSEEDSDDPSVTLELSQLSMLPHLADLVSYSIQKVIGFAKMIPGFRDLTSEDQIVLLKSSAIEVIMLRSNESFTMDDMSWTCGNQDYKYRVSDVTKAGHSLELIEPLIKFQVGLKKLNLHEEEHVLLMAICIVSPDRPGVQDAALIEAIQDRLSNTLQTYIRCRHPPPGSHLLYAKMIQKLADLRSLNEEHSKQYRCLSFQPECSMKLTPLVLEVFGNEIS
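Measured by FP: displacement of SRC2-3 coactivator peptide from VDR by library compounds, following a two-hour ambient incubation.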
* = called active by the depositor; ? = inconclusive; & = joins results of further samples; [ ] = dose if it differs, or a comment. On the % scale 0 is the no-effect control and ±100 the full control effect; potency means the concentration at half of the fitted maximal effect.

SMILES | VDR inhibitor
COc1ccccc1C(=O)COC(=O)c1cnc(C)cn1 | -13%
CCOC(=O)c1cnc(SCC(=O)N2CCC(C(N)=O)CC2)nc1N | 14%
Nc1ncc(-c2ccccc2)c(-c2ccc(OCc3ccccc3)cc2O)n1 | -11%
COCC(=O)N1CCC(Oc2ccc(C(=O)NC(C)c3nc(C)sc3C)cc2)CC1 (stereo not given) | -21%
O=C(Nc1c(C(=O)N2CCN(c3ccccn3)CC2)oc2ccccc12)c1ccc([N+](=O)[O-])cc1 | -6%
Cc1cccc(C)c1NC(=O)CCCN1CC(C)OC(C)C1 (stereo not given) | 3%
CCS(=O)(=O)N1CCN(c2ccc([N+](=O)[O-])c(NCC3CCCO3)c2)CC1 (stereo not given) | -10%
CC(=O)Nc1ccc(/C(C)=N/Nc2nc(Nc3ccccc3)nc(N3CCOCC3)n2)cc1 | 7%
CSc1c(CC(=O)NCCO)n(C)c2ccccc12 | 9%
COc1cc(OC)cc(-c2nc3nc(C)c(CCC(=O)Nc4ccc(C)c(C)c4)c(C)n3n2)c1 | -3%
CC1CC(=O)Nc2ccccc2N1C(=O)Nc1ccccc1 (stereo not given) | -5%
CCN1CCN(C(=O)C2CCN(c3nnc(-n4c(C)ccc4C)s3)CC2)CC1 | -3%
CCCCOP(=O)(c1ccc(N(C)C)cc1)C(Nc1ccccc1)c1ccccc1 (stereo not given) | -6%
O=C(Nc1nnc(-c2ccccc2F)s1)c1cccnc1 | 4%
CCCCCCC1CC(CCC(=O)Nc2ccc([N+](=O)[O-])cc2)C(=O)O1 (stereo not given) | -11%
CCOc1cc(C)c(Cl)cc1S(=O)(=O)N1CCCC1 | -3%
Cc1ccc(NC(=O)CCC(=O)NNC(=O)COc2ccc([N+](=O)[O-])cc2)cc1C | 1%
CC1CCCCC1NC(=O)CN1CCC(O)(c2ccc(F)cc2)CC1 (stereo not given) | -9%
COc1ccc(CCNc2nc3ccccc3c3nc(-c4cccc(C)c4)nn23)cc1OC | 0%
COc1ccc(/C=N/Nc2cn[nH]c(=O)c2Cl)cc1 | 6%
CCOC(=O)c1cnc(-n2nc(C)cc2C)nc1NNc1nc(-c2ccccc2)cc(-c2ccccc2)n1 | -14%
O=S(=O)(NC1CCN(Cc2ccccc2)CC1)c1cccc2cccnc12 | 19%
Cc1ccc(S(=O)(=O)NCC2CCC(C(=O)NCc3ccco3)CC2)cc1 (stereo not given) | -16%
COc1cc(/C=N/NC(=O)c2cccc(S(=O)(=O)N3CCCCC3)c2)cc(Br)c1O | ?
O=C(c1ccc(=O)oc1)N1CCN(C(c2ccccc2)c2ccccc2)CC1 | -8%

Next part:
SMILES | VDR inhibitor
CCc1ccc(NC(=O)C/C(C)=N/NC(=O)COc2ccc(C)cc2Br)cc1 | -1%
CCCC(=O)OCc1cnc(C)c2oc(=O)c(C(=O)Nc3ccc(F)cc3C)cc12 | 1%
Cc1cc(NC(=O)CSc2ccc(F)cc2)no1 | -19%
CC(C)(C)c1ccc(OCCC(=O)OCC(=O)NCc2ccccc2)cc1 | 10%
COc1ccc(CN(C)C(=O)c2ccc(COc3ccccc3)cc2)c(OC)c1 | -16%
CCN(C(=O)Cn1cc(S(=O)(=O)N2CCN(c3ccccc3F)CC2)c2ccccc2c1=O)c1ccc(C)c(C)c1 | -18%
O=C(c1cnn2c(C(F)F)cc(-c3ccccc3)nc12)N1CCc2ccccc2C1 | 1%
Cc1nn(C)c(C)c1S(=O)(=O)N1CCC(C(=O)NC(C)c2ccccc2)CC1 (stereo not given) | -5%
CCOC(=O)c1cc(C#N)c(SCC(=O)Nc2ccc(C(C)=O)cc2)[nH]c1=O | -13%
Cc1n[nH]c(C)c1CN(C)C(=O)C1CCC(=O)N(CC2CCCCC2)C1 (stereo not given) | 0%
CNC(=O)CSc1nc(-c2ccccc2)c(-c2ccccc2)[nH]1 | 12%
N/C(=N\NS(=O)(=O)c1ccc(Cl)cc1)c1ccccn1 | -10%
COc1ccc(-c2csc(NC(=O)CN3C(=O)NC4(CCCC4)C3=O)n2)cc1OC | -13%
COc1ccc(CCn2c(SCC(=O)Nc3cc(C)on3)nc3ccsc3c2=O)cc1OC | -1%
CC(C)CN1CCC(=O)N(CCSc2ccc(Br)cc2)CC1 | -14%&-8%
CCOc1ccc(C(=O)NCC(=O)N2CCN(C/C=C/c3ccccc3)CC2)cc1OCC | 4%
CC/C(=N/NC(=O)CCC(=O)Nc1ccccc1OC)c1ccccc1 | 0%
CCOC(=O)c1c(C)oc2c1c(/C=N/c1ccccn1)c(O)c1ccccc12 | -26%
COc1ccc2[nH]cc(CCNc3ccnc(-c4ccccc4C(F)(F)F)n3)c2c1 | -15%
Cc1cc(C)n(C2CC(=O)N(c3ccccc3)C2=O)n1 (stereo not given) | 21%
Clc1ccc(CSCCc2ccncc2)cc1 | 12%
CC1CC1C(=O)Nc1cc(S(=O)(=O)N2CCOCC2)ccc1N1CCCC1 (stereo not given) | -2%
Cc1ccc(SCC(=O)c2ccc[nH]2)cc1 | 5%
NC(=O)N1CCc2ccccc21 | 8%
Cc1nnc(SCC(=O)Nc2ccc(F)cc2)n(N)c1=O | -15%

Molecules listed so far that contain a furan ring, fused or not, in the order listed:
SMILES | VDR inhibitor
O=C(Nc1c(C(=O)N2CCN(c3ccccn3)CC2)oc2ccccc12)c1ccc([N+](=O)[O-])cc1 | -6%
Cc1ccc(S(=O)(=O)NCC2CCC(C(=O)NCc3ccco3)CC2)cc1 (stereo not given) | -16%
CCOC(=O)c1c(C)oc2c1c(/C=N/c1ccccn1)c(O)c1ccccc12 | -26%

The listing continues:
SMILES | VDR inhibitor
CCCCC(=O)Nc1ccc(C(=O)c2ccccc2)cc1 | -3%
C[C@@H]1OC(O[C@H]2[C@H](Oc3cc(O)c4c(=O)c(O)c(-c5ccc(O)cc5)oc4c3)O[C@H](CO)[C@@H](O)[C@@H]2O)[C@H](O)[C@H](O)[C@H]1O (stereo not given in full) | 6%
CCOC(=O)c1ccccc1NC(=O)c1ccccc1N(C)S(C)(=O)=O | 73%[activator]
COc1cc(NC(=O)Cc2cccc3ccccc23)c(C(=O)O)cc1OC | -21%
CCOC(=O)c1[nH]c(C)c(C(=O)NCCc2ccc(OC)cc2)c1C | -18%
CCOC(=O)C1=C(c2ccccc2)N=C2SCC(=O)N2C1c1ccc2c(c1)OCO2 (stereo not given) | ?
COC(=O)c1[nH]c2cccc(OC)c2c1NC(=O)C(C)N1CCC(C)CC1 (stereo not given) | 20%
COc1cccc(/C=C/c2nc(C#N)c(NCCc3ccc(OC)c(OC)c3)o2)c1 | 8%
COc1cc(C(=O)OCC(=O)c2cc(C)n(CC3CCCO3)c2C)ccc1OCC(=O)N1CCOCC1 (stereo not given) | -9%
Cc1cc(Br)ccc1NC(=O)CN(C)C(=O)CN1C(=O)NC2(CCCC2)C1=O | -1%
Cc1ccc(NC(=O)COC(=O)CCc2ccc(S(=O)(=O)N3CCOCC3)cc2)cc1C | ?
Cc1cccc(COc2ccc(/C(O)=C3\C(=O)C(=O)N(CCN(C)C)C3c3ccncc3)cc2)c1 (stereo not given) | 7%
CCCC(=O)OCc1cnc(C)c2oc(=O)c(C(=O)Nc3ccccc3)cc12 | 3%
CCN(CCO)Cc1csc2ccc(Cl)cc12 | -16%
CCOc1ccccc1CN1CCNC(=O)C1CC(=O)NCc1cc(C)n(C)n1 (stereo not given) | 17%
CNc1nc(OCCNC(=O)Nc2ccccc2)nc(N2CCOCC2)n1 | -10%
O=C(COC(=O)c1cccnc1Cl)c1cccc(Cl)c1 | 3%
CCOc1[nH]c(/N=C/c2ccc(OC)cc2)c(C#N)c1C#N | -31%
CCCc1cc(C(=O)N2CCC(N3CCC(C(=O)NC(C)C)CC3)CC2)n(C)n1 | -4%
Cc1cc(NCc2ccccn2)n2nc(C)c(-c3ccccc3)c2n1 | 9%
O=C(Nc1nc2cc3c(cc2s1)OCCO3)c1ccco1 | 3%
CC(C)(C)c1ccc(-c2nnc(-c3ccccc3NC(=O)c3cccc(C(F)(F)F)c3)o2)cc1 | -6%
Cn1c2ccccc2c(=O)c2cc(C#CC3(O)CCCCC3)ccc21 | -16%
N#Cc1ccc(C(=O)Nc2ccc3ccccc3c2)cc1 | ?
CCn1c(-c2c(Cl)c(C)nn2C)n[nH]c1=S | -8%

The listing continues.
SMILES | VDR inhibitor
CCCC(CCC)C(=O)Oc1cc(C)[nH]c(=O)c1[N+](=O)[O-] | ?
Cc1ccc(C)c(NC(=O)CCCn2c(C)c3cnn(-c4ccccc4)c(=O)c3c2C)c1 | 15%
CN(C)c1ncnc2c1ccn2C1OC(CO)C(O)C1O (stereo not given) | -17%
COc1ccc(CNc2ccc(C)c(C)c2)c(OC)c1OC | -4%
C=CCC(C(=O)c1ccccc1)[N+](C)(C)CC=C (stereo not given) | 2%
COCCCNC(=O)CC1C[C@H](C(=O)N2CCCCC2)[C@@]2(CCc3ccccc3)c3[nH]c4ccccc4c3CCN2C1=O (stereo not given in full) | -19%
CCCc1cc(=O)oc2cc(C)cc(OC(C)C(=O)NCc3ccncc3)c12 (stereo not given) | 9%
Cc1ccc(NC(=O)CN(C)C(=O)CCCN2C(=O)c3ccccc3C2=O)cc1 | -5%
Cc1ccccc1Cn1c(=O)n(CCCCCC(=O)NCc2ccc3c(c2)OCO3)c(=O)c2sccc21 | -18%
Clc1ccc(/C=N/NC(=Nc2ccccc2)c2ccccn2)c(Cl)c1 | -8%
O=C(Nc1ccccc1Cl)N1CCSc2ccccc21 | 1%&17%
CC1CN(C(=O)c2cc3cc(Cl)ccc3[nH]2)CC(C)O1 (stereo not given) | -8%
CCN(C(=O)COC(=O)c1c(NC(C)=O)sc(C)c1C)C1CCS(=O)(=O)C1 (stereo not given) | -16%
Cc1nc(NCCc2ccccc2F)c(C#N)c(C)c1[N+](=O)[O-] | 6%
O=C(CN1C(=O)CC(c2ccco2)Sc2ccccc21)Nc1ccc(OC(F)(F)F)cc1 (stereo not given) | -11%
O=C(O)c1cnc(-c2ccccc2)nc1Sc1cccc(Cl)c1 | -4%
COC(=O)Cc1nc2c(N)nc(N)nc2[nH]c1=O | 8%
Cc1ccc(CNC(=O)COC(=O)c2ccc(Br)cc2)cc1 | -6%
C[C@]12CCC3c4ccc(OCC(=O)O)cc4CCC3C1CCC2=O (stereo not given in full) | 3%
COC(=O)CCC(=O)OC1(C)C(=O)C=C2C=C(C3CC3)N(Cc3ccc4c(c3)OCO4)C=C2C1=O (stereo not given) | 25%
S=C(NN=C1CCCCCC1)Nc1ccc(Cl)cc1 | 28%
CC(C)n1c(=S)[nH]c2cc(C(F)(F)F)ccc21 | -28%
CSc1ncccc1C(=O)OCC(=O)NC1CCCCC1 | -1%
COc1ccc(NC(=O)Cn2nc(SC)c(S(=O)(=O)c3ccc(C)cc3)c2N)cc1OC | -1%
O=C(Nc1ccc2c(c1)C(=O)NC2=O)c1ccc(S(=O)(=O)N2CCCC2)cc1 | -10%

Other structures
SMILES | VDR inhibitor
Cc1onc(-c2ccccc2)c1C(=O)NC(CC(=O)O)c1ccc(OC(C)C)cc1 (stereo not given) | 20%
COc1ccc(N2CC(C(=O)Nc3ncccc3C)CC2=O)cc1 (stereo not given) | -3%
COC(=O)CSc1nnc(C)n1-c1cccc(C#N)c1 | -3%
O=c1nc(N2CCOCC2)ccn1-c1nc(-c2ccccc2)oc1-c1ccccc1 | 0%
O=C(Nc1ccc(O)cc1)c1cc2ccccc2c(=O)s1 | -13%
Cc1cc2nc(/C(C#N)=C\c3ccc(-c4ccccc4C(=O)O)o3)[nH]c2cc1C | -23%
C=CCn1cc(C(=O)N2CCc3ccccc3C2)c(=O)c2cc(S(=O)(=O)N(CC)CC)ccc21 | -5%
COc1cccc(NC(=O)C2C3C=CC4(O3)C2C(=O)N(CCN2CCCCC2)C4C(=O)NC2CCCCC2C)c1 (stereo not given) | -12%
Cc1cccc(C)c1-n1c(C)nn(-c2ncc(C(F)(F)F)cc2Cl)c1=O | 1%
CCCCCCc1cc2cc(C(=O)NCc3ccccc3)c(=N)oc2cc1O | 8%
CCC(C)NS(=O)(=O)c1cc2c3c(c1)CCC(=O)N3CCC2 (stereo not given) | 7%
CCN1C(=O)c2ccccc2S(=O)c2ccc(C(=O)N3CCN(c4ccccc4OC)CC3)cc21 (stereo not given) | -7%

Structures listed so far with an aryl thioether with sulfur outside any ring, in the order listed:
SMILES | VDR inhibitor
CCOC(=O)c1cnc(SCC(=O)N2CCC(C(N)=O)CC2)nc1N | 14%
CSc1c(CC(=O)NCCO)n(C)c2ccccc12 | 9%
Cc1cc(NC(=O)CSc2ccc(F)cc2)no1 | -19%
CCOC(=O)c1cc(C#N)c(SCC(=O)Nc2ccc(C(C)=O)cc2)[nH]c1=O | -13%
CNC(=O)CSc1nc(-c2ccccc2)c(-c2ccccc2)[nH]1 | 12%
COc1ccc(CCn2c(SCC(=O)Nc3cc(C)on3)nc3ccsc3c2=O)cc1OC | -1%
CC(C)CN1CCC(=O)N(CCSc2ccc(Br)cc2)CC1 | -14%&-8%
Cc1ccc(SCC(=O)c2ccc[nH]2)cc1 | 5%
Cc1nnc(SCC(=O)Nc2ccc(F)cc2)n(N)c1=O | -15%
O=C(O)c1cnc(-c2ccccc2)nc1Sc1cccc(Cl)c1 | -4%
CSc1ncccc1C(=O)OCC(=O)NC1CCCCC1 | -1%
COc1ccc(NC(=O)Cn2nc(SC)c(S(=O)(=O)c3ccc(C)cc3)c2N)cc1OC | -1%
COC(=O)CSc1nnc(C)n1-c1cccc(C#N)c1 | -3%

The list is partial. The share of hits here may be higher or lower than overall.
